Source: PubChem (several laboratories)
AF4-AF9 inh – blocks AF4 peptide binding to human AF9. actives 0.47% (n = 350,000). P42568. inhibition, % at 10 µM. AlphaScreen, biotin-AF4 peptide binding to FLAG-AF9;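 active means every replicate reaching a set inhibition limit, whatever the replicate mean, cut at about 25% in these data; inconclusive means mean inhibition reaches that limit but some replicates miss it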;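 further: 0% = plate neutral control median and 100% = total signal loss; the record names both 10 and 1 µM as test concentration; the first replicate is given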
Target sequence (P42568 whole entry, looked up): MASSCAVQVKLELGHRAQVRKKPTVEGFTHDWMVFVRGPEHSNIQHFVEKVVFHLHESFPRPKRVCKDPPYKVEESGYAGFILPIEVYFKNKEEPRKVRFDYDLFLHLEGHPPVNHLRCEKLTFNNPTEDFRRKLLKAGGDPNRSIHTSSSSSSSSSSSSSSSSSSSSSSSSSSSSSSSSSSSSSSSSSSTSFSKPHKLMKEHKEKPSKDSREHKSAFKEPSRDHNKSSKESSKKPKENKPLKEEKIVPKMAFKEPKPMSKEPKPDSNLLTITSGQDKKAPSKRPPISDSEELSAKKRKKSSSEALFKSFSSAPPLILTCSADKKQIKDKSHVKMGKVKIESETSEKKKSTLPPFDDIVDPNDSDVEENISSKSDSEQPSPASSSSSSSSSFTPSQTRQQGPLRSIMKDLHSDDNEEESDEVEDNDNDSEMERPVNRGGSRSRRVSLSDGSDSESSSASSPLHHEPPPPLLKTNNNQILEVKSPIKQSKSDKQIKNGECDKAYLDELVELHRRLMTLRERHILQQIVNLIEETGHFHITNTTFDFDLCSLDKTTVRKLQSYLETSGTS
ALR H2O2 inh – inhibitors of human sulfhydryl oxidase ALR; P55789; purified ALR, DTT oxidation, H2O2 HRP-luminol luminescence; inhibition, % (test concentration not listed); actives 3.8% (n = 290,000);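 active means mean and each replicate at 75% or more; inconclusive means only one of the two met; inactive means neither met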;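 further: stock transfer was 7.5 nL into about 7.5 µL; 0% = neutral wells and 100% = wells with inactivated enzyme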
HNF4A DNA FP – change in binding of human HNF4 alpha to DNA; activity change, % at 10 µM; actives 0.3% (n = 360,000); AID 1224865; P41235; HNF4a-FITC DNA binding, fluorescence polarization, 1 h; in the data active means activity change above about 30%, passing the limit was not always enough;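 further: controls were the assay level and a saturating level of protein; the project sought stronger binding though the title names inhibitors; some compounds called inactive have numbers as strong as hits; positive values seem to mean higher polarization but the record does not say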
Target sequence (P41235 whole entry, looked up): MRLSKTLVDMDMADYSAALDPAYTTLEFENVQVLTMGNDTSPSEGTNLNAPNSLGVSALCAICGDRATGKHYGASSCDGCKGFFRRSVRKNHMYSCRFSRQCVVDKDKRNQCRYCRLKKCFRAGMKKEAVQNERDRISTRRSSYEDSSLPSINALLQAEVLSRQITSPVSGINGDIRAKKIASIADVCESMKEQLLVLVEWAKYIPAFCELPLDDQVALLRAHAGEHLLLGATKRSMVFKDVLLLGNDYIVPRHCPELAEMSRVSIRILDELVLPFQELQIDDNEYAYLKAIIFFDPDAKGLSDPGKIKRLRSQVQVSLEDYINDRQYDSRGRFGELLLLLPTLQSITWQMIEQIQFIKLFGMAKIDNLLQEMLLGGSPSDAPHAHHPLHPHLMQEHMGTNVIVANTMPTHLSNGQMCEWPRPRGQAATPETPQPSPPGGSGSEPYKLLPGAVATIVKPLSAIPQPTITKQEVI
Vif TR-FRET – HIV-1 Vif–A3G interaction blockers – biochemical, TR-FRET, GST-Vif 1-94, biotin-A3G peptide, dose response retest, primary screen (AID 1117319); inhibition, %, or IC50 in µM where a hit was titrated; TR-FRET GST-Vif / biotin-A3G peptide binding; higher % means a stronger effect; test concentration not given here; strong numbers were not always called active; actives 0.57% (n = 260,000);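 active means above the screen mean plus three standard deviations and confirmed in dose response; inconclusive means results disagree or hit not tested in dose response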;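 further: Vif residues 1-94 fused to GST binding biotinylated APOBEC3G peptide 110-148; 0% = full assay without inhibitor and 100% = GST in place of GST-Vif; retest series ran down from 100 µM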
Ecoli growth – inhibitors of Escherichia coli growth; actives 0.21% (n = 330,000); OD600, 23 h; stronger effect = lower value; OD600 absorbance (test concentration not listed);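 active means OD600 absorbance below the run mean of sample wells minus 3.6 SD, in any replicate, cut at about 0.56 in these data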;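 further: stock transfer was 300 nL into about 60 µL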
rRNA inh HTS – selective bacterial rRNA inhibition in E. coli; actives 1.6% (n = 350,000); E. coli WT GFP vs humanized-ribosome RFP mutants, fluorescence, 24 h; stronger effect = lower value; DMSO median 0, no signal -100; GFP signal change (wild-type ribosome), % (concentration not given with the values);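 active means significant combined selectivity score with lowered wild-type GFP, culture density cut under 30%, mutant RFP and density less affected; inactive means any of these conditions unmet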; further: one replicate is shown; some compounds called inactive have numbers as strong as hits
FGF22 binding – FGF22 (human) thermal shift binding; actives 1.5% (n = 340,000); calls only at 9.99 µM; Q9HCT0; recombinant FGF22 thermal shift, SYPRO orange fluorescence; percent of sucrose octasulfate shift, DMSO zero;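 active means melting point raised past a set limit in the mean and every replicate; inconclusive means no clear call; three in four hits are not shown here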
rRNA inh HTS OD600 – recorded beside rRNA inh HTS, whose call it bears; OD600 change, %; measured here: OD600 growth;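 optical density of the mix in the first replicate; 0 = DMSO median and -100 = no signal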
rRNA inh HTS RFP – further read-out of rRNA inh HTS, marked with its call; RFP signal change, %; measured here: RFP humanized mutant strains;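 first replicate; 0 = DMSO median and -100 = no signal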
* hit, by the source's call; i = inactive; u = inconclusive; x = no result given; & = joins results of further samples.

AF4-AF9 inh	ALR H2O2 inh	HNF4A DNA FP	Vif TR-FRET	Ecoli growth	rRNA inh HTS	rRNA inh HTS OD600	rRNA inh HTS RFP	FGF22 binding	SMILES
x	x	0.4	12%	0.79	x	x	x	x	Cc1cc(NC(=O)c2cccc(C(=O)Nc3cc(C)on3)n2)no1
-16	-5	4.5	x	0.65	1	0	5.5	i	O=C(/C=C/c1ccc(F)cc1)NCCCN1CCN(CCCNC(=O)/C=C/c2ccc(F)cc2)CC1
4.0	98*	3.3	x	x	-10	-2	-2.6	i	COc1ccccc1/C=C/C=N/Nc1cccc(C(=O)O)c1
1.1	6	-1.0	x	0.67	-7	3	-2.3	i	CCCCCCCCc1nc(SCC(C)=O)n[nH]1
x	-3	2.6	7%	0.68	x	x	x	x	O=C(NCc1ccc(N2CCCC2=O)cc1)Nc1ccccc1
0.0	x	2.0	x	0.66	x	x	x	i	CCN1CCN(S(=O)(=O)c2ccc(Cl)c(C(=O)N(CC(C)C)C3CCS(=O)(=O)C3)c2)CC1 (centres undefined)
x	-1	2.6	16%	0.66	x	x	x	x	COc1ccc(-c2nnc3ccc(SC(C(C)=O)C(C)=O)nn23)cc1OC
-0.4	x	-2.1	x	x	1	-7	2.8	i	CCC(CC)C(=O)N(C)c1c(C)nc2c(OCc3ccc(C#N)cc3)cccn12
x	x	-2.0	6%	0.72	x	x	x	x	CC1CC(C)CN(C(=O)c2ccccc2Nc2ccc(SC(F)F)cc2)C1 (centres undefined)
-4.2	-9	3.7	-2%	0.67	9	2	-1.7	i	CCOC(=O)NNc1ccccc1
4.6	x	1.7	x	x	-29	-33	-12	i	O=C(Nc1ccc2c(c1)OCCO2)C(C1CC1)N1CCC(Cc2ccccc2)CC1 (centres undefined)
x	x	3.1	x	x	10	9	1.0	i	O=C1Nc2ccccc2C(=O)N(c2ccc3c(c2)OCCO3)C1C(=O)NC1CC1 (centres undefined)
0.4	-1	6.7	-2%	0.65	-9	-33	-1.6	i	O=C1CC2(CCN(C(=O)COc3ccc(Cl)cc3)CC2)Oc2ccccc21
x	-14	-0.2	4%	x	x	x	x	x	CCC(=O)N1CCc2cc(S(=O)(=O)NCCC(=O)N3CC=C(c4ccccc4)CC3)ccc21
16	3	-1.7	-6%	0.67	1	-1	9.1	i	Cc1cc(N2CCN(C)CC2)nc2ccc(NC(=S)N3CCN(c4ccccn4)CC3)cc12
x	-2	2.6	13%	0.63	x	x	x	x	Cc1cccc(N(CC(=O)Nc2c(C)n(C)n(-c3ccccc3)c2=O)S(C)(=O)=O)c1C
x	-19	-1.0	x	0.7	8	16	4.3	i	CCN(CC)CCCN1C=C2C(=O)C(C)(OC(=O)CCC(=O)OC)C(=O)C=C2C=C1C1CC1 (centres undefined)
2.3	-4	2.7	-4%	0.68	-22	-27	1.1	i	CC(=O)c1ccc(N=C2SCCCN2C(=O)C2CCCCC2)cc1
-8.1	x	x	x	x	2	3	-1.8	i	O=C(C[C@H]1C=C[C@@H](NC(=O)CC2CC2)[C@@H](CO)O1)NCc1ccc(Cl)cc1
3.9	97*	-1.9	-10%	0.66	-31	-30	-12	i	Cc1ccc(N=Nc2c(N)[nH]n3c(=O)cc(C)nc23)cc1

(cont.)
AF4-AF9 inh	ALR H2O2 inh	HNF4A DNA FP	Vif TR-FRET	Ecoli growth	rRNA inh HTS	rRNA inh HTS OD600	rRNA inh HTS RFP	FGF22 binding	SMILES
-2.0	x	6.4	x	x	6	16	1.3	i	O=C(O)C[C@H]1c2cc(F)ccc2S(=O)(=O)N1C1CCCC1
0.3	99*	-2.3	x	0.69	1	5	2.2	i	CSCc1ccc(C(=O)N2CCCC(Nc3ccc4c(c3)OCCO4)C2)o1 (centres undefined)
x	-37	-2.2	65%	0.67	x	x	x	x	Cc1ccc(S(=O)(=O)N2CCCCC2)cc1C(=O)Nc1ccc2cn[nH]c2c1
-1.8	x	-0.6	-2%	0.62	-11	-15	-1.4	i	CCOc1ccc(-c2c(C)sc3nc[nH]c(=O)c23)cc1
-2.3	1	-5.5	-2%	0.79	-7	-11	-1.4	i	CNC(=O)C1CCN(S(=O)(=O)c2c(C)noc2/C=C/c2cccc(OC)c2)CC1
4.2	99*	1.3	x	0.67	-9	1	-4.2	i	CC(CCc1ccc(O)cc1)NCCc1ccc(O)c(O)c1 (centres undefined)
-5.9	x	-2.0	8%	0.72	8	15	1.0	i	CCC(Sc1nccn1C)C(=O)Nc1nnc(C)s1 (centres undefined)
-2.0	-11	2.8	x	0.61	15	7	0.4	i	O=c1c2ccc([N+](=O)[O-])cc2ncn1CCOc1ccc(Cl)cc1
-2.9	-6	2.7	u	0.68	21	14	2.8	i	O=C(O)c1cn(Cc2ccccc2)nc1-c1cccnc1
-1.2	-1	4.8	-1%	0.7	7	6	-1.6	i	CCCN1CCN(C(=O)Cn2cnc3ccc(S(=O)(=O)N4CCC(C)CC4)cc3c2=O)CC1
x	0	4.9	-1%	0.79	x	x	x	x	CCCC(=O)NC(=S)Nc1cccc(NC(=O)c2ccc(Cl)cc2Cl)c1
-4.2	-5	-1.8	x	x	0	9	1.7	i	NCCNC(=O)Cc1ccc(NC(=O)Cc2ccc(Nc3ncnc4c3ncn4[C@@H]3O[C@H](CO)[C@@H](O)[C@H]3O)cc2)cc1
-6.3	x	-0.3	x	0.73	1	0	-1.1	i	CCOc1cccc(C2C(C(=O)c3ccc(C)o3)=C(O)C(=O)N2Cc2ccccc2)c1 (centres undefined)
2.4	-1	5.3	x	0.71	-6	-9	-0.7	i	COc1ccc(/C=C/C(=O)Oc2ccc(C=O)cc2OC)cc1
4.2	x	x	x	x	0	-3	2.4	i	COc1ccc(NC(=O)Nc2ccc3c(c2)C(=O)N([C@H](C)CO)C[C@@H](C)[C@@H](CN(C)C(=O)NC2CCCCC2)OCCCC[C@@H](C)O3)cc1
2.2	x	x	x	x	3	-3	-2.9	i	C[C@H]1CCCCO[C@H](CN(C)Cc2ccccc2)[C@@H](C)CN([C@@H](C)CO)C(=O)c2cc(NC(=O)Cc3ccccc3)ccc2O1
-6.4	3	-0.8	3%	0.64	13	2	3.0	i	C[N+]1(CC(=O)OCCCC2CCCCC2)CCCC1
-0.7	x	-9.8	18%	0.72	7	5	1.8	x	CC(NC(=O)CNC(=O)c1ccccc1Br)c1cccs1 (centres undefined)
3.7	-1	1.8	16%	0.71	-2	-10	0.7	i	COc1ccc(-c2cc(-c3cccs3)nc3sc(C#N)c(N)c23)cc1
x	0	x	-1%	0.75	x	x	x	x	COc1ccc(-c2cc(C(F)(F)F)c(C#N)c(SCC(=O)Nc3ccccc3C#N)n2)cc1

Laid out differently: results already given
Structure | AF4-AF9 inh | ALR H2O2 inh | HNF4A DNA FP | Vif TR-FRET | Ecoli growth | rRNA inh HTS | rRNA inh HTS OD600 | rRNA inh HTS RFP | FGF22 binding
O=C(O)c1cn(Cc2ccccc2)nc1-c1cccnc1 | -2.9 | -6 | 2.7 | u | 0.68 | 21 | 14 | 2.8 | i
CCCN1CCN(C(=O)Cn2cnc3ccc(S(=O)(=O)N4CCC(C)CC4)cc3c2=O)CC1 | -1.2 | -1 | 4.8 | -1% | 0.7 | 7 | 6 | -1.6 | i

3 of the entries above in order of their number in AF4-AF9 inh, highest first:
AF4-AF9 inh	ALR H2O2 inh	HNF4A DNA FP	Vif TR-FRET	Ecoli growth	rRNA inh HTS	rRNA inh HTS OD600	rRNA inh HTS RFP	FGF22 binding	SMILES
-1.2	-1	4.8	-1%	0.7	7	6	-1.6	i	CCCN1CCN(C(=O)Cn2cnc3ccc(S(=O)(=O)N4CCC(C)CC4)cc3c2=O)CC1
-2.9	-6	2.7	u	0.68	21	14	2.8	i	O=C(O)c1cn(Cc2ccccc2)nc1-c1cccnc1
-4.2	-5	-1.8	x	x	0	9	1.7	i	NCCNC(=O)Cc1ccc(NC(=O)Cc2ccc(Nc3ncnc4c3ncn4[C@@H]3O[C@H](CO)[C@@H](O)[C@H]3O)cc2)cc1

Continuation.
AF4-AF9 inh	ALR H2O2 inh	HNF4A DNA FP	Vif TR-FRET	Ecoli growth	rRNA inh HTS	rRNA inh HTS OD600	rRNA inh HTS RFP	FGF22 binding	SMILES
4.9	-9	-0.2	2%	0.69	x	x	x	x	Cc1cccc(N2C(=O)C3C(c4ccccc4)OC4(C(=O)c5ccccc5C4=O)C3C2=O)c1 (centres undefined)
-0.1	1	-2.0	x	0.67	3	14	0.3	i	Cc1ccc(NC(=O)N2CCC(NC(=O)c3cccc(F)c3)CC2)cc1
x	-11	-5.4	-9%	0.74	x	x	x	x	CCCCn1c2nc3ccccc3nc2c2c(=O)n(C(C)CC)cnc21 (centres undefined)
1.8	-2	0.8	-10%	0.62	0	3	2.4	i	CN(C)CCCNC(=O)c1cc(C(=O)c2c(Cl)cccc2Cl)c[nH]1
-5.1	5	0.7	-4%	0.66	7	2	-0.4	i	Cc1ccc(S(=O)(=O)N2CCCCC2)cc1NC(=S)NC(=O)c1ccco1
5.7	x	-2.8	1%	x	7	7	0.6	i	CNC(=S)N/N=C(\C)c1cccc(C(F)(F)F)c1
-1.2	-7	-3.8	22%	0.72	-3	0	-3.2	i	N#CCCN(C(=O)COC(=O)COc1ccc(Cl)cc1)c1ccccc1
4.3	-4	2.5	4%	0.73	19	4	5.8	i	COc1ccc(C=C2C(=O)c3ccccc3C2=O)cc1O
x	1	x	-12%	0.72	x	x	x	x	Cc1ccc(NC(=O)Nc2ccc3c(c2)nc(C)n3C)cc1C
-0.4	-2	-0.1	14%	0.69	-3	4	-3.8	i	Cc1nnc(NC(=O)Cn2c(=O)sc3ccccc32)s1
-15	-2	-3.5	8%	0.7	-4	-2	-1.4	i	N#Cc1ccc(S(=O)(=O)N2CCN(CC(=O)Nc3ccccc3C(=O)NC3CC3)CC2)cc1
-5.9	x	3.7	-9%	x	4	-1	-2.5	i	CCOC(=O)c1c(NC(=O)COC(=O)c2ccc(S(=O)(=O)C(F)F)cc2)sc(C(=O)N(C)C)c1C
x	u	0.6	-3%	0.7	x	x	x	x	O=C(COC(=O)CCS(=O)(=O)c1ccc(Cl)cc1)Nc1ncc(Cl)cc1Cl
x	-4	0.1	4%	0.7	x	x	x	x	C=C(C)CN(CC)C(=O)CSc1nc2ncc(Cl)cc2[nH]1
3.0	1	1.4	-2%	0.7	-14	-20	2.6	i	CS(=O)(=O)N(Cc1ccccc1)c1ccc(C(=O)Nc2ccccc2C(=O)O)cc1
-1.4&-2.4	x	-1.1	-2%	x	2	0	-0.8	i	C[C@@H]1CN([C@H](C)CO)C(=O)CCCn2nncc2CO[C@H]1CN(C)C(=O)C1CCCCC1
-5.1	27	18	31%	0.7	-50	-75	-28	i	Nc1c(C(=O)O)sc2nc(-c3ccccc3)cc(-c3ccccc3)c12

Not all compounds are listed; rates above refer to the full screens.
